Screens from PubChem.
ClpP mod: qHTS Assay for Activators of ClpP. Potency, µM (doses to about 57.5 µM), without a hit: at the highest dose activity change, negative = active. 1.9% of 340,000 active. ATP-dependent Clp protease proteolytic subunit (Bacillus subtilis (strain 168)), P80244. purified B. subtilis ClpP, FRET peptide cleavage, 20 min; active = well fitted falling curve with a large enough effect; inconclusive = small, poorly fitted or top-dose-only effect; inactive = no such curve, though single readings can be large or run the other way; also: potency is read from the fitted curve at half-maximal effect; the source files actives as falling curves though it sought activators and does not explain the sign; nearly all actives have a fitted effect of over 65% in size; many hits overshoot -100%
Target sequence (P80244 whole entry, looked up): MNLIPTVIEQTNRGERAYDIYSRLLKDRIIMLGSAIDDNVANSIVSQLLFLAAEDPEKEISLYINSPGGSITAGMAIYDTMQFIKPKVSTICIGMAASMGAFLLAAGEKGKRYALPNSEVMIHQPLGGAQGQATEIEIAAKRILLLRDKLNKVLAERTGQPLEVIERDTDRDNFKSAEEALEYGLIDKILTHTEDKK
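Buffer: 100 mM Tris/HCl pH8, 100 mM KCl, 0.05% low protease BSA, 2.5% glycerol, 0.01% Tween-20. ClpP 10 microg/mL final; 20 min RT; delta FRET normalized to ADEP and DMSO controls.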
TRPML1 ag: human mucolipin-1 channel agonism; Q9GZU1; TRPML1-expressing cells, Ca2+ dye fluorescence, FDSS; host cell line not named in the record; reference of the full effect not given here; activation, % (test concentration not listed); 0.12% of 410,000 active; AID 624414; in the data active = activation above about 50%; inconclusive = about 30% to 50%; inactive = below about 30%; also: 0% is about no effect; the text of the record puts the active cut at 80%
Target sequence (Q9GZU1 whole entry, looked up): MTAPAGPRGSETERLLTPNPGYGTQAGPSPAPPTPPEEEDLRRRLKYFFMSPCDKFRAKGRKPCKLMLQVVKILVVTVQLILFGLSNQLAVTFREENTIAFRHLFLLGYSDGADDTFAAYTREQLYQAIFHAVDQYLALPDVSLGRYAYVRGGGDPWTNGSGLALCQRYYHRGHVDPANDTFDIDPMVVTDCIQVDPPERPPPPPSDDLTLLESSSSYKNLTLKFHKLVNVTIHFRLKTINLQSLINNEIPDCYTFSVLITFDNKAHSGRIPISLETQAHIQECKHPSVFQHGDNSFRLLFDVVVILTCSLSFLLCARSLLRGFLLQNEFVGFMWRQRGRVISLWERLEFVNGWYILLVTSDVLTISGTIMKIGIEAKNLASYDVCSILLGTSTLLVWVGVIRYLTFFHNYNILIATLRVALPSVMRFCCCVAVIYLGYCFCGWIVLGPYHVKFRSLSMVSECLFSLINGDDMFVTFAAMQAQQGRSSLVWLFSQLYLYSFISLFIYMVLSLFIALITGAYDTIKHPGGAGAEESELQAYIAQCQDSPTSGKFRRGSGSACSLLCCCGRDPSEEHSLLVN
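Tet-induced TRPML1-DL cells, 1,500 per well, cultured overnight, were loaded with a no-wash Ca2+ dye for 45–90 min. Calcium fluorescence was recorded on the FDSS for 110 s after compound addition, before the EC80 agonist (4 uM 54-4) was added.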
* = called active by the depositor; ? = inconclusive. Only part of the results is shown; rates above refer to the full screens.

SMILES	ClpP mod	TRPML1 ag
NC(=O)c1cccc(-c2ccnc3c2CC(C(=O)Nc2ccc(Cl)cc2)O3)c1 (stereo not given)	-0.6%	-0.2
CCOc1cccc(C2C=C(c3ccc4c(c3)OCO4)NC(c3ccc(Br)cc3)N2)c1O (stereo not given)	-1.2%	-0.5
Cc1nc2c(OCCC3CCCCC3)cccn2c1N(C)C(=O)CCC1CCCC1	-0.5%	6.4
O=C(NCc1ccccc1Cl)c1csc([C@@H]2O[C@H](CO)[C@H](O)[C@H](O)[C@H]2O)n1	1.0%	-0.3
COc1ccc(C(=O)N2CCCC(c3cc(C(=O)NCc4cccnc4)no3)C2)cc1 (stereo not given)	0.7%	-1.0
CN1CCN(c2ncnc3c2ncn3[C@H]2CN(Cc3ccc(F)cc3)C[C@@H](CO)O2)CC1	1.6%	-0.1
Oc1ccc(C[C@@H](CN2CCCC2CN2C(=S)NC[C@@H]2Cc2ccccc2)N2C[C@H](Cc3ccccc3)N(CC3CCCCC3)C2=S)cc1 (stereo not given in full)	-2.2%	-0.2
O=C(NCC1CCN(Cc2ccccc2)CC1)[C@H]1O[C@@H](n2ccc(=O)[nH]c2=O)[C@H](O)[C@@H]1O	0.7%	-0.6
FC(F)(F)c1ccccc1Cc1c(-c2ccccc2)nc2ccc(Br)cn12	-8.6%	0.1
COc1cc(C=C(OC(C)=O)c2ccc3c(c2)OCO3)cc(OC)c1OC	-17%	-0.8
O=C(NCc1ccccc1)C1c2ccccc2OCC(=O)N1CCc1ccccc1 (stereo not given)	-1.8%	-0.6
C[C@H]1COc2cc(N3CCN(Cc4ccccc4F)CC3)ccc2S(=O)(=O)N1	0.9%	-0.9
Cc1ccsc1-c1cc2nc(Nc3ccc(F)cc3)n(C)c(=O)c2s1	?	-0.2
COCCCn1cc(CN2CC(N3CCN(Cc4cccc(C)c4)CC3)CS2(=O)=O)nn1 (stereo not given)	0.4%	-0.8
COCCNC(=O)C1CCCN(C(=O)c2nc3ccccc3s2)CC1 (stereo not given)	-2.1%	-0.4
CC1(C(=O)NCc2ccccc2Br)CCN1C(=O)C1(c2ccc(Cl)cc2)CC1 (stereo not given)	-1.0%	-0.6
COc1ccc(CCNC(=O)c2cnn3c2NC(=C2CC2)C=C3C(F)F)cc1OC	-1.2%	-1.0
O=C(NCCO)c1cccc(-c2ccc3nncn3c2)c1	-24%	0.2
CCCN1CNc2c(c(=O)[nH]c(=S)n2CCc2cc(Cl)ccc2Cl)C1	1.8%	-0.4
CC(C)CNC(=O)C1(C)CCCN1Cc1ccc(OC(F)(F)F)cc1 (stereo not given)	1.1%	-0.5
CCOC(=O)C1(C)CCCN1C(=O)c1c(F)cccc1F (stereo not given)	0.8%	-0.5
O=C1/C(=C/c2ccc(S(=O)(=O)O)cc2S(=O)(=O)O)CCc2ccccc21	1.8%	-0.2
CC(C)(C)c1ccc(CC(=O)N2CCC2(C)C(=O)NS(=O)(=O)c2ccc(C#N)cc2)cc1 (stereo not given)	0.5%	0.3
CC1(C(=O)NS(=O)(=O)c2cccc(OC(F)F)c2)CCN1C(=O)Cc1cccs1 (stereo not given)	0.6%	-0.4
Cc1csc[n+]1CC(=O)c1ccccc1	-2.6%	-0.7
Cc1ccc(Cc2c(-c3ccc(C#N)cc3)nc3c4ccccc4ccn23)cc1	?	0.5
Cc1noc(C)c1-c1ccc(C(=O)NC2CCCCC2)c2occc12	-19%	-0.7
CC(=O)c1cccc(NC(=O)C2(C)Cc3c(-c4ccccc4)ccnc3O2)c1 (stereo not given)	0.0%	-0.7
Nc1[nH]c(C(=O)c2ccccc2)c(-c2cccnc2)c1C(=O)NCCc1ccc(Cl)cc1Cl	?	-1.1
COc1ccc(CNC(=O)c2ccc(-n3ccnc3)c3ccoc23)cc1OC	-3.2%	-0.3

Whole records, looked up by structure. Screens in order: ClpP mod	TRPML1 ag
`CC1(C(=O)NCc2ccccc2Br)CCN1C(=O)C1(c2ccc(Cl)cc2)CC1` (stereo not given) across the screens: -1.0%	-0.6
`COc1cc(C=C(OC(C)=O)c2ccc3c(c2)OCO3)cc(OC)c1OC` across the screens: -17%	-0.8

Carrying on:
SMILES	ClpP mod	TRPML1 ag
COc1ccc(CN2C(=O)c3ccccc3C2c2nnnn2Cc2ccccc2)cc1OC (stereo not given)	0.0%	-0.7
CC1(C(=O)O)CCCN1C(=O)c1cccc(F)c1 (stereo not given)	1.8%	-0.4
CCCS(=O)(=O)NC(=O)C1(C)CCCN(C(=O)c2cc(C)n(C(C)(C)C)n2)C1 (stereo not given)	0.2%	-0.2
CSCCNC(=O)C1(C)CCN1C(=O)c1cc(C)n(C)n1 (stereo not given)	2.0%	-0.7
CCOC(=O)[C@]12CCC=C1N(CCC1=CCCCC1)C(=O)[C@H](CC(=O)N1CCC(c3ccccc3)CC1)C2	-5.0%	-0.2
O=C(Nc1cccc(Cl)c1)c1csc(COCCO)n1	3.1%	-0.3
Cc1cc(C)cc(CC(=O)N2CCC2(C)C(=O)NS(=O)(=O)c2ccc(C(C)(C)C)cc2)c1 (stereo not given)	-2.7%	-0.3
CCc1ccc2cc(C)cnc2n1	-0.8%	-0.5
COc1ccc(OC)c(NC(=O)Nc2nc(CN)cs2)c1	0.3%	-0.3
COc1cccc(C(O)c2nc(-c3ccc(F)cc3OC)cs2)c1 (stereo not given)	1.0%	0.9
c1ccc(SC23CCCCN(CCC2)[C@]32CO2)cc1 (stereo not given in full)	-24%	-0.9
CC(C)c1ccc(CC(=O)N2CCC2(C)C(=O)NS(=O)(=O)c2cccc(OC(F)F)c2)cc1 (stereo not given)	1.0%	0.3
Cc1cn(CC(=O)NCc2nc3ccccc3[nH]2)c(=O)[nH]c1=O	1.1%	-0.5
CCCCCc1c(-c2ccc(OC)cc2)ncn1CCc1ccccc1OC	-2.5%	0.4
OCCN1CCN(c2ncnc3c2ncn3[C@H]2CN(Cc3cccnc3)C[C@@H](CO)O2)CC1	0.3%	-0.6
OCc1ccc(-c2cncc3nccn23)cc1	4.1%	-0.9
Cc1ccc(F)c(S(=O)(=O)NC(=O)C2(C)CCN2C(=O)C2(c3ccc(Cl)cc3)CCC2)c1 (stereo not given)	-0.1%	0.5
CCCCn1nnnc1C(c1cc2ccccc2o1)N(Cc1ccccc1)Cc1ccccc1 (stereo not given)	-1.0%	0.6
CC(=O)Nc1cncc(-c2cccc(S(C)(=O)=O)c2)n1	-24%	0.3
CC1(C(=O)O)CCCN(C(=O)c2ccc3c(c2)C(C)(C)CCC3(C)C)C1 (stereo not given)	-2.0%	-0.1
CCOC(=O)C(=O)N(C)c1c(CC)nc2c(OCc3ccccc3)cccn12	-3.0%	-0.8
O=S(=O)(c1ccccc1C(F)(F)F)N1CCN(c2nc(-c3ccccc3)nc3ccccc23)CC1	-11%	-0.2
CN(C)CCN1CCN(C(c2cc3ccccc3o2)c2nnnn2C(C)(C)C)CC1 (stereo not given)	-1.6%	-0.4
C(=C\c1ccc2nncn2c1)/c1ccccc1	5.6%	0.6
CCCCCCCCN1C(=O)[C@H](CC(=O)NCC2CCCCC2)C[C@@]2(C(=O)OCC)CCCC=C12	0.9%	-0.2
O=[N+]([O-])c1ccc(Cl)c(S(=O)(=O)/N=C(/Sc2ccc(Br)cc2)c2ccccc2)c1	-0.2%	-0.4
OC(c1ccc2c(c1)OCO2)c1ncc(-c2ccc(Cl)cc2)[nH]1 (stereo not given)	-1.9%	-1.0
O=C(Nc1ccc2c(c1)OCO2)c1cc(C2CCCCN2S(=O)(=O)c2ccccc2)on1 (stereo not given)	-2.7%	0.1
CCOc1ccc(-c2cc(C(=O)NCc3ccc(C(F)(F)F)cc3)[nH]n2)c(C)c1	-0.2%	-0.3
CC1(Oc2cccc(F)c2)CCN(Cc2ccc(-c3ccccc3)o2)C1 (stereo not given)	-9.2%	-0.5
COc1ccc(C(=O)c2[nH]c(N)c(C(=O)NCCc3c[nH]c4ccccc34)c2-c2c(F)cccc2Cl)cc1	-2.4%	-0.5
COc1ccc(Cn2cc(CN3CC(N4CCSCC4)CS3(=O)=O)nn2)cc1 (stereo not given)	-4.1%	-0.3
CCOc1[nH]c(/N=C/c2ccc(OC)cc2)c(C#N)c1C#N	-17%	1.4
Cc1ccc(CN(Cc2cc3cc(C)ccc3[nH]c2=O)Cc2nnnn2Cc2ccccc2)cc1	?	-0.7
COc1c(C)cc(C(O)c2ncc(-c3ccccc3C)[nH]2)cc1C (stereo not given)	0.3%	-0.5
COc1ccc(CN2CC[C@H]3C=CC[C@@H](C(=O)Nc4ccc(Cl)cc4Cl)[C@H]3C2=O)cc1OC	-2.5%	-0.9
CC1(C(=O)NS(=O)(=O)c2ccccc2)CCN1C(=O)Cc1cccc2ccccc12 (stereo not given)	-0.9%	-0.5
O=C(NCC1CC1)C1Cc2c(-c3ccccc3Oc3ccccc3)ccnc2O1 (stereo not given)	0.8%	-0.3
CN(C)CCN1CCN(C2CN(Cc3ccccc3)S(=O)(=O)C2)CC1 (stereo not given)	1.9%	-0.2
O=C(Nc1ccc2nc([C@H]3C[C@H](O)[C@@H](CO)O3)[nH]c2c1)NC(c1ccccc1)c1ccccc1	-3.5%	-0.8
CCCNC(=O)C1(C)CCN1C(=O)c1ccccc1CCc1ccccc1 (stereo not given)	1.4%	-0.9
Cc1cccc(COC[C@H](CC(C)C)N2CCN(C(=O)c3ccc(C(C)(C)C)cc3)CCC2=O)c1	4.2%	0.2
CC(NC(=O)C1CCN(Cc2ccc(Oc3ccccc3)cc2)CC1)c1cccc2ccccc12 (stereo not given)	-25%	0.1
CCN(CC)c1ncnc2c1ncn2[C@H]1CN(Cc2ccc(OC)cc2)C[C@@H](CO)O1	-3.3%	-0.9
O=S1(=O)CC(N2CCSCC2)CN1Cc1cn(Cc2cccc(C(F)(F)F)c2)nn1 (stereo not given)	-0.6%	-0.7
COc1cccc(-c2cnc(C(O)c3cccc(F)c3)[nH]2)c1 (stereo not given)	-0.5%	-0.9
CC(C)CNc1ncnc2c1ncn2[C@H]1CN(Cc2ccncc2)C[C@@H](CO)O1	0.5%	0.1
C(=C\c1ccnc2ccccc12)/c1cccs1	-3.4%	-0.7
O=C(NCc1ccccc1)c1cc(C2CCCN(S(=O)(=O)c3cccc4cccnc34)C2)on1 (stereo not given)	2.0%	-0.6
COc1ccc(-c2cc(NC=O)c3ncc(-c4cccc(C(F)(F)F)c4)n3c2)cc1OC	?	-0.4
Following part
SMILES	ClpP mod	TRPML1 ag
CCOC(=O)[C@]12CCC=C1N(Cc1ccc3c(c1)OCO3)C(=O)[C@H](CC(=O)NCc1ccc(OC)c(OC)c1)C2	-5.6%	-1.1
COc1ccc(/C=C/c2ccc3ccccc3n2)c(OC)c1	4.3%	-0.2
CN(C)CCNc1ncnc2c1ncn2[C@H]1CN(Cc2ccncc2)C[C@@H](CO)O1	-4.4%	-0.4
CC1=C(C(=O)N2CCCCCC2)CC(CC(=O)NCCc2ccccn2)C(=O)N1Cc1ccc(F)cc1 (stereo not given)	0.3%	-0.3
O=C(Nc1cccc(Oc2ccccc2)c1)C1Cc2c(-c3ccco3)ccnc2O1 (stereo not given)	?	0.3
COCCN1C[C@@H](CO)O[C@@H](n2cnc3c(N4CCOCC4)ncnc32)C1	-1.5%	-0.5
COc1cccc(CN2CCC2(C)C(=O)Nc2cnc3ccccc3c2)c1F (stereo not given)	-5.1%	-0.8
CC1(C(=O)NS(=O)(=O)c2ccccc2Cl)CCN1C(=O)Cc1ccccc1Cl (stereo not given)	1.3%	-0.7
O=C(NC1CCCCC1)C(c1cc2ccccc2o1)N1CCOCC1 (stereo not given)	0.0%	-0.7
CC(C)(C)c1ccc(CC(=O)N2CCC2(C)C(=O)NCc2ccc(Cl)cc2)cc1 (stereo not given)	1.3%	-0.7
O=C(COc1ccccc1C(=O)NCc1ccccc1)Nc1ccc(Br)cc1	3.7%	-0.3
O=C1SC(Nc2ccccc2)C(=O)N1c1ccccc1 (stereo not given)	-1.8%	-0.6

In the list so far, these have an NH in an aromatic ring.
SMILES	ClpP mod	TRPML1 ag
O=C(NCC1CCN(Cc2ccccc2)CC1)[C@H]1O[C@@H](n2ccc(=O)[nH]c2=O)[C@H](O)[C@@H]1O	0.7%	-0.6
CCCN1CNc2c(c(=O)[nH]c(=S)n2CCc2cc(Cl)ccc2Cl)C1	1.8%	-0.4
Nc1[nH]c(C(=O)c2ccccc2)c(-c2cccnc2)c1C(=O)NCCc1ccc(Cl)cc1Cl	?	-1.1
Cc1cn(CC(=O)NCc2nc3ccccc3[nH]2)c(=O)[nH]c1=O	1.1%	-0.5
OC(c1ccc2c(c1)OCO2)c1ncc(-c2ccc(Cl)cc2)[nH]1 (stereo not given)	-1.9%	-1.0
CCOc1ccc(-c2cc(C(=O)NCc3ccc(C(F)(F)F)cc3)[nH]n2)c(C)c1	-0.2%	-0.3
COc1ccc(C(=O)c2[nH]c(N)c(C(=O)NCCc3c[nH]c4ccccc34)c2-c2c(F)cccc2Cl)cc1	-2.4%	-0.5
CCOc1[nH]c(/N=C/c2ccc(OC)cc2)c(C#N)c1C#N	-17%	1.4
Cc1ccc(CN(Cc2cc3cc(C)ccc3[nH]c2=O)Cc2nnnn2Cc2ccccc2)cc1	?	-0.7
COc1c(C)cc(C(O)c2ncc(-c3ccccc3C)[nH]2)cc1C (stereo not given)	0.3%	-0.5
O=C(Nc1ccc2nc([C@H]3C[C@H](O)[C@@H](CO)O3)[nH]c2c1)NC(c1ccccc1)c1ccccc1	-3.5%	-0.8
COc1cccc(-c2cnc(C(O)c3cccc(F)c3)[nH]2)c1 (stereo not given)	-0.5%	-0.9
